Assay outcomes from PubChem BioAssay.
VACV Venus inh: qHTS for Stage-Specific Inhibitors of Vaccinia Orthopoxvirus: Venus Reporter Primary qHTS | Vaccinia virus Venus reporter expression, fluorescence | Potency, µM (series often up to 36.5 µM), for the others: at the top dose activity change, negative = inhibition, usual class: inhibitors | hit rate 0.46% among 330,000 | AID 720580, 2013; active means well fitted inhibition curve with a large enough effect; inconclusive means small, poorly fitted or top-dose-only effect; inactive means no such curve, though single readings can be large or run the other way; tested in A549 cells; further: nearly all actives have a fitted effect of over 30% in size; inactives centre near -10
Vaccinia mCherry: qHTS for Stage-Specific Inhibitors of Vaccinia Orthopoxvirus: mCherry Reporter Primary qHTS; hit rate 0.63% among 310,000; Vaccinia virus mCherry reporter infection, fluorescence; about a quarter of the inactives have no number; Potency, µM (series often up to 36.5 µM), inactives show at the top dose activity change, negative = inhibition, hits mostly inhibitors; active = well fitted inhibition curve with a large enough effect; inconclusive = small, poorly fitted or top-dose-only effect; inactive = no such curve, though single readings can be large or run the other way; tested in A549 cells; further: nearly all actives have a fitted effect of over 35% in size; inactives centre near -10
An asterisk follows results filed as active; i = inactive; ? = inconclusive; nt = not tested or not shown; & = joins results of further samples. On the % scale 0 is the no-effect control and ±100 the full control effect; potency means the concentration at half of the fitted maximal effect.

entry | structure | VACV Venus inh | Vaccinia mCherry
1 | COCC1CCCN(C(=O)c2ccc(OC3CCN(Cc4ccccn4)CC3)cc2)C1 (stereo not drawn) | -19% | i
2 | N#CCCn1cc(C(=O)O)c(-c2ccc3ccccc3c2)n1 | -14% | i
3 | CCOC(=O)c1cc(S(=O)(=O)N2CCN(c3cccc(C)c3)C(C)C2)[nH]n1 (stereo not drawn) | -9% | -11%
4 | CCN(CC)S(=O)(=O)c1ccc(C(=O)N=c2sc3cccc(OC)c3n2C)cc1 | 3% | -5%
5 | OC1CCCN(c2c3c(nc4cc(-c5cccc(F)c5)nn24)CCCC3)C1 (stereo not drawn) | -18% | i
6 | O=C(NCc1cccnc1)C(=O)Nc1nc(C23CC4CC(CC(C4)C2)C3)cs1 | -3% | i
7 | CCN(CC(=O)Nc1ccccc1OC)CC(=O)Nc1sccc1C#N | -4% | -19%
8 | CCC1CCCCN1C(=O)CCCOc1ccccc1 (stereo not drawn) | -8% | -13%
9 | COc1cccc(CN(C)C(=O)c2ccc(S(=O)(=O)Nc3cccc(C)c3C)cc2)c1OC | -27% | -6%
10 | O=C(CSC1=Nc2ccccc2C2=NC(Cc3ccccc3)C(=O)N12)Nc1ccccc1F (stereo not drawn) | -10% | -9%
11 | COc1ccc(N(C)C(=O)c2ccc3nc(-c4ccccc4)c(-c4ccccc4)nc3c2)cc1 | -30% | ?
12 | Cc1cccc(C)c1NC(=O)CNC(=O)c1ccc(N2CCOCC2)c([N+](=O)[O-])c1 | -14% | -2%
13 | CCCCNC(=O)CSc1nnc(NC(C)=O)s1 | -20% | nt
14 | COC(=O)/C=C1\OCc2cccc(C)c21 | 15% | -16%
15 | CCC1(CC)NC(=O)N(CC(=O)N2CCN(S(=O)(=O)c3cccc(F)c3)CC2)C1=O | -11% | i
16 | CC(C)Oc1ccc(CN2CCC(n3nccc3NC(=O)C3CC3)CC2)cc1 | -16% | i
17 | CC(=O)NCc1ccc(C(=O)CN2C(=O)NC3(CCCCC3C)C2=O)s1 (stereo not drawn) | -1% | -7%
18 | O=C1[C@H]2[C@@H](c3ccc(F)cc3)N3C(=O)N(c4cccc(F)c4)C(=O)[C@@]3(Cc3ccc(Cl)cc3)[C@H]2C(=O)N1C1CCCCC1 | -13% | 8%
19 | CC(C)(C)c1ccc(S(=O)(=O)N2CCN(Cc3cc4c(cc3O)OCO4)CC2)cc1 | -2% | i
20 | COc1cc2c(cc1OC)CN(C(=O)COc1ccccc1[N+](=O)[O-])CC2 | -2% | -9%
21 | CCN1CCCC1CN(Cc1cc2ccc(C)cc2[nH]c1=O)C(=S)Nc1ccccc1C(=O)OC (stereo not drawn) | -16% | -2%
22 | Cc1ccc(S(=O)(=O)N2CCN(C(=O)COC(=O)c3oc4ccccc4c3C)CC2)cc1 | -7% | -20%
23 | COCCn1c(SCc2nc3scc(-c4ccc(Cl)cc4)c3c(=O)[nH]2)nnc1-c1cccc(C)c1 | ? | ?
24 | CCNc1nc(NCC)nc(NS(=O)(=O)c2ccc(N)cc2)n1 | -9% | -15%
25 | O=C(O)CCc1nc2cc(C(F)(F)F)ccc2n(Cc2ccccc2)c1=O | 3% | -11%
26 | Cc1nc(N2CCN(S(=O)(=O)c3ccc(F)cc3)CC2)c2c(-c3cccs3)csc2n1 | -2% | i
27 | COCCNC(=O)NC(=O)COC(=O)C1(c2ccc(Cl)cc2)CC1 | -7% | i
28 | CN1CCN(C(=O)C2CCN(S(=O)(=O)c3ccc(F)cc3)CC2)CC1 | 0% | i
29 | Cc1cc(C)cc(N(C(=O)c2csnn2)C(C(=O)NC2CCCCC2)c2ccncc2)c1 (stereo not drawn) | -8% | -15%
30 | Cc1ccc(-c2cnc(-c3ccccc3C(=O)O)o2)cc1 | 5% | 1%
31 | NC(=S)N=Nc1c(O)n(CCCl)c2ccccc12 | 1µM* | ?
32 | COc1ccc(OC)c(S(=O)(=O)Nc2c(C)n(C)n(-c3ccccc3)c2=O)c1 | -2% | i

6 compounds already listed, arranged by SMILES length, low to high.
entry | structure | VACV Venus inh | Vaccinia mCherry
31 | NC(=S)N=Nc1c(O)n(CCCl)c2ccccc12 | 1µM* | ?
24 | CCNc1nc(NCC)nc(NS(=O)(=O)c2ccc(N)cc2)n1 | -9% | -15%
27 | COCCNC(=O)NC(=O)COC(=O)C1(c2ccc(Cl)cc2)CC1 | -7% | i
25 | O=C(O)CCc1nc2cc(C(F)(F)F)ccc2n(Cc2ccccc2)c1=O | 3% | -11%
28 | CN1CCN(C(=O)C2CCN(S(=O)(=O)c3ccc(F)cc3)CC2)CC1 | 0% | i
32 | COc1ccc(OC)c(S(=O)(=O)Nc2c(C)n(C)n(-c3ccccc3)c2=O)c1 | -2% | i

More results
entry | structure | VACV Venus inh | Vaccinia mCherry
33 | CCSC1=N/C(=C\c2ccccc2)C(=O)N1 | -8% | -9%
34 | CCOC(=O)c1ccc(NC(=O)CSc2nnnn2C2CCCCC2)cc1 | -10% | -13%
35 | CCSc1nc2ccccc2c(OCc2cc(C(=O)OC)ccc2OC)c1C(=O)OC | -30% | -24%
36 | CCN(CC)Cc1c(O)ccc2c([N+](=O)[O-])c(C)n(-c3ccc(OC)cc3)c12 | -18% | nt
37 | COc1ccc(C2=C/C(=C\c3ccc(OC(C)=O)cc3)C(=O)O2)cc1 | -16% | -5%
38 | CC(=O)c1nn(-c2cccc(Br)c2)cc1C(=O)c1ccc(Cl)cc1 | ? | i
39 | COc1cc2c(cc1OC(C)=O)C(=O)CCCC2 | 7% | i
40 | S=P1(Oc2ccccc2)Nc2ccccc2N1 | -1% | -2%
41 | Cc1ccc(S(=O)(=O)NCCc2nnc3ccc(SCc4ccccc4C)nn23)cc1 | -15% | -17%
42 | COc1cc(/C=C2\C(=N)N3N=C(C(C)C)SC3=NC2=O)ccc1OCCOc1ccc(NC(C)=O)cc1 | -13% | -5%
43 | FC(F)(F)c1ccccc1Cc1c(-c2ccc(Cl)cc2)nc2ccc(Br)cn12 | -24% | ?
44 | O=C1C(Cc2ccccc2)S/C(=N/N=C/c2ccco2)N1c1ccccc1 (stereo not drawn) | ? | nt
45 | O=C(Nc1nc2nccc(-c3ccccc3)n2n1)c1ccccc1 | -7% | i
46 | CC1CCc2c(sc(NC(=O)c3c([N+](=O)[O-])cnn3C)c2C(N)=O)C1 (stereo not drawn) | -11% | -1%
47 | COC(=O)CNc1c(-c2ccccc2)nc2ccc(Br)cn12 | 5% | 25%
48 | COc1cccc(N=C2SC(CC(=O)Nc3ccccc3)C(=O)N2Cc2ccccn2)c1 (stereo not drawn) | -23% | i
49 | CC1CCN(C(=O)c2[nH]cnc2C(=O)Nc2ccc(Cl)cc2)CC1 | ? | -3%
50 | CN1N=C(C(=O)Nc2ccc3c(c2)CCC3)CCC1=O | -11% | i
51 | CN(CC(=O)NCCc1ccccc1)S(=O)(=O)c1cccc2nsnc12 | -4% | -18%
52 | CCCn1ncc2c(Nc3ccc(C)c(C)c3)ncnc21 | -12% | i
53 | O=C(CSc1nnc2scc(-c3ccc(Cl)cc3)n12)Nc1ccccc1F | 0% | -7%
54 | CCOC(=O)c1c(C(=O)OCC)c(C)n(CCc2ccccc2)c1C | -18% | -7%
55 | CC(C)CNC(=O)C1Nc2ccc(C(F)(F)F)cc2C2C=CCC12 (stereo not drawn) | -7% | -3%
56 | Cc1ccc(OCCCN2CCCC2)c(C)c1 | -12% | nt
57 | CSc1cccc(NC(=O)CCCOc2ccccc2)c1 | -10% | -16%
58 | O=C1CCN(Cc2ccccc2)S(=O)(=O)c2ccc(F)cc21 | -14%&-9% | -9%
59 | COc1cccc(CN(C)CC(=O)N2CCN(S(=O)(=O)c3ccccc3)CC2)c1 | -9% | -16%
60 | O=C(CCl)N(c1ccccc1)C1CCS(=O)(=O)C1 (stereo not drawn) | 11µM* | 10µM*
61 | CN(C)Cc1ccccc1-c1ccc2ncnc(NC3CCNCC3)c2c1 | 0% | -3%
62 | O=S(=O)(c1ccc2ncsc2c1)N1CCN(c2nc(-c3cccs3)nc3ccccc23)CC1 | -19% | i
63 | C=CCOc1ccc(C2C(C#N)=C(N)N(Nc3ccccc3)C3=C2C(=O)CCC3)cc1OC (stereo not drawn) | ? | ?
64 | CC[C@@H](C)[C@H](NC(=O)C1CCN(C(=O)[C@@H](NS(=O)(=O)c2ccc(C)cc2)C(C)C)CC1)C(=O)O | -5% | nt
65 | CNc1cc(C)c(C#N)c2nc3ccccc3n12 | -11% | i
66 | CC(C)(O)C1CC[C@@](C)([C@@H]2CC[C@]3(C)[C@H]2[C@H](O)CC2[C@@]4(C)CCC(O)C(C)(C)C4C(OC4OC(CO)C(O)C(O)C4O[C@@H]4OCC(O)C(O)C4O)C[C@]23C)O1 (stereo partly drawn) | -4% | i
67 | CC(C)n1c(/C=C/c2ccccc2)nc2ccccc21 | -23% | -25%
68 | Cc1ccccc1CC1(CO)CCCN(C(=O)CCCN2CCCCC2=O)C1 (stereo not drawn) | -13% | i
69 | COc1ccc(NC(=O)CN(C)Cc2c(F)cccc2Cl)cc1S(=O)(=O)N1CCCCC1 | -10% | i
70 | O=c1[nH]c(CSc2nc3ccccc3o2)nc2c1cnn2-c1ccccc1 | -8% | nt
71 | COc1cc(/C=C(\C#N)C(=O)NC2CCCCC2)ccc1OCc1ccc(C(=O)O)cc1 | -7% | -1%
72 | CCC1=C(OC(=O)N(CC)CC)N2C(=O)OC(=NCc3ccccc3)[C@]2(C)[C@H]2C1=CC[C@H]1C(=O)N(c3ccccc3)C(=O)[C@H]12 | -3% | i

As entered above.
COc1ccc(NC(=O)CN(C)Cc2c(F)cccc2Cl)cc1S(=O)(=O)N1CCCCC1 in VACV Venus inh: -10%
Cc1ccccc1CC1(CO)CCCN(C(=O)CCCN2CCCCC2=O)C1 (stereo not drawn) in VACV Venus inh: -13%

Next part:
entry | structure | VACV Venus inh | Vaccinia mCherry
73 | COc1ccc([N+](=O)[O-])cc1NC(=O)C(C)OC(=O)/C=C/c1ccco1 (stereo not drawn) | -14% | -3%
74 | C=CCc1cc(OC)ccc1OCCOCCN1CCc2ccccc2C1 | -12% | ?
75 | CCOc1ccc(NC(=O)CSc2nc3c(oc4ccccc43)c(=O)n2-c2cc(C)cc(C)c2)cc1 | 1% | -7%
76 | CCN(C(=O)c1ccco1)c1nnc(-c2cccnc2)s1 | 6% | i
77 | COc1ccc(CNC(=O)c2ccc(NC(=O)N3CCCCc4ccccc43)cc2)cc1 | -15% | -12%
78 | CCOc1ccc(C(=O)NCC(c2ccco2)S(=O)(=O)c2cccs2)cc1 (stereo not drawn) | -10% | -12%
79 | CCC1(C)CC(CCNS(=O)(=O)c2ccc(C)cc2)(c2ccc(C)cc2)CCO1 (stereo not drawn) | ? | nt
80 | Cn1c(=O)c2cc(S(=O)(=O)NCCC(=O)NC3CCCCCCC3)ccc2n(C)c1=O | -13% | -17%
81 | COc1ccc(Br)c(OC)c1C(=O)NC(=O)Nc1nc(C)cc(C)n1 | 16% | i
82 | CCC1(c2ccccc2)CN(C)C1=O (stereo not drawn) | -11% | i
83 | COC(=O)[C@@]12C[C@@H](CC(=O)N3CCCCC3)C(=O)N(Cc3cccc4ccccc34)C1=CCC(C)(C)C2 | -20% | i
84 | COc1ccccc1NS(=O)(=O)c1cc(NC(=O)c2ccc(=O)[nH]c2)ccc1N1CCOCC1 | -9% | -1%
85 | CCN(CC)S(=O)(=O)c1ccc(OC)c(NS(=O)(=O)c2ccc(F)cc2)c1 | -22% | -20%
86 | Cc1ccc(S(=O)(=O)NC(=S)NC2CCCCC2)cc1 | -2% | 0%
87 | CCOc1ccc2oc(C(=O)N(C)CC(=O)Nc3ccc(OCC)c(OCC)c3)c(C)c2c1 | -14% | -11%
88 | CCCNC(=O)C1(C)CCN(Cc2cc(-c3ccccc3)on2)C1 (stereo not drawn) | -17% | 19%
89 | CC(C)CC1C(=O)N(Cc2cn(CCC3OCCCO3)nn2)CCS(=O)(=O)N1Cc1ccc(-c2ccccc2)cc1 (stereo not drawn) | -12% | i
90 | O=C(Nc1ccccc1)c1sc2cc(C(F)(F)F)cnc2c1-c1cccs1 | -7% | -15%
91 | CCOCCC(=O)Nc1ncc(S(=O)(=O)c2ccc([N+](=O)[O-])cc2)s1 | -28% | ?
92 | CSCCC(NC(=O)c1ccccc1)C(=O)N/N=C(\C)c1ccccc1 (stereo not drawn) | -1% | i
93 | Fc1ccc2c(c1)C(c1ccncc1)=NNC(c1ccc(Br)cc1)=N2 | -5% | -4%
94 | COc1ccc(-n2c(=O)c3c4c(sc3n(Cc3ccc(F)cc3)c2=O)CCCC4)c(OC)c1 | -8% | -10%
95 | O=C(NCc1cccs1)c1ccc(CSc2nc3cccnc3n2Cc2ccc(F)cc2)cc1 | -5% | -15%
96 | CCOC(=O)/C(C#N)=C/Nc1ccccc1NS(=O)(=O)c1ccc(C)c(C)c1 | -3% | i
97 | COc1ccc(OC)c(NC(=O)c2cc(-c3cc(C)ccc3O)n[nH]2)c1 | 11µM* | 10µM*
98 | N#Cc1nc(-c2cccs2)oc1NCc1ccc(Cl)cc1 | -13% | -26%
99 | COc1cc2ccccc2cc1C(=O)NC(=S)Nc1cccc(C(=O)O)c1C | -14% | -11%
100 | O=C(NN1C(=O)c2ccccc2C1=O)C1C2CCCCC21 (stereo not drawn) | -15% | -24%
101 | COc1ccc(C2=NNC(c3cccnc3)=Nc3ccccc32)cc1 | -6% | -11%
102 | Cc1ccc(-c2ccc3nnc(SCC(=O)NCC4CCCO4)n3n2)cc1 (stereo not drawn) | -13% | -14%
103 | O=C(NCc1cccnc1)c1ccc(COc2cccc3ccccc23)o1 | ? | -23%
104 | Cc1ccc(C)c(NC(=O)CC2NCCNC2=O)c1 (stereo not drawn) | -18% | -14%

No enrichment for hits; overall some 0.82% were active at least once.
